# Assay outcomes: PubChem BioAssay, National Center for Advancing Translational Sciences (NCATS)
# StopGo reporter – lowers the luciferase signal of an FMDV 2A StopGo reporter | human cells with a luciferase reporter of 2A StopGo recoding; control for the full effect not named in the record | Potency, µM (doses to about 57.9 µM), without a hit: top-dose signal change, negative = less light | AID 1159524 | 410,000 compounds, 1.2% hits; active = well fitted falling curve with a large enough effect; inconclusive = small, poorly fitted or top-dose-only effect; inactive = no such curve, though single readings can be large or run the other way; tested in HEK293T cells; also: % is scaled to controls: 0 for no effect and ±100 for the full control effect; nearly all actives have a fitted effect of over 45% in size; luciferase light after 4 h
# Lassa entry inh – blocks Lassa virus binding to or entry into cells; Lassa virus pseudotype entry inhibition, cell reporter; control for the full effect not named in the record; Potency, µM (highest dose often 37.9 µM), without a hit: top-dose activity change, negative = inhibition, hits mostly inhibitors; 300,000 compounds, 1.2% hits; active means well fitted inhibition curve with a large enough effect; inconclusive means small, poorly fitted or top-dose-only effect, or effect the other way; inactive means flat fitted curve, though single readings scatter; tested in HEK293 cells; also: % is scaled to controls: 0 for no effect and ±100 for the full control effect; nearly all actives have a fitted effect of over 50% in size; luciferase read-out
# RE007 growth inh – less growth of the S. pombe RE007 Vpr strain. S. pombe RE007 Vpr strain, BacTiter-Glo ATP luminescence, 24 h; control for the full effect not named in the record. Potency, µM (doses to about 92.2 µM), for inactives: at the top dose activity change, negative = less growth. 360,000 compounds, 0.21% hits; active = well fitted falling curve with a large enough effect; inconclusive = small, poorly fitted or top-dose-only effect; inactive = no such curve, though single readings can be large or run the other way;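 also: % is scaled to controls: 0 for no effect and ±100 for the full control effect; nearly all actives have a fitted effect of over 50% in size; the assay follows cell death caused by Vpr and the record does not say whether a fall means rescue or toxicity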
#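 Fission yeast strain RE007, carrying one chromosomally integrated HIV-1 vpr copy, was seeded at OD 0.01 in PMG+AL medium with 23 nL pinned compound. After 24 h at 30 °C and 99% humidity, viability was read by BacTiter-Glo luminescence.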
# Cruzain inh Det – inhibitors of Trypanosoma cruzi cruzain with detergent. purified cruzain, Z-FR-AMC fluorescence, 0.01% Triton. Potency, µM, for inactives: max response, negative = inhibition, actives largely listed as inhibitors. 200,000 compounds, 0.43% hits. AID 1478; active = well fitted curve in the direction sought with a large enough effect; inconclusive = small, poorly fitted or top-dose-only effect, or another doubt; inactive = no such curve, though single readings can be large; an effect the other way counts as inactive or inconclusive;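 also: plate controls were neutral wells for no effect and buffer without enzyme for full effect; nearly all actives have a fitted effect of over 40% in size; top concentration of the series not given in the record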
# Target sequence (P25779 123-467 limits assumed): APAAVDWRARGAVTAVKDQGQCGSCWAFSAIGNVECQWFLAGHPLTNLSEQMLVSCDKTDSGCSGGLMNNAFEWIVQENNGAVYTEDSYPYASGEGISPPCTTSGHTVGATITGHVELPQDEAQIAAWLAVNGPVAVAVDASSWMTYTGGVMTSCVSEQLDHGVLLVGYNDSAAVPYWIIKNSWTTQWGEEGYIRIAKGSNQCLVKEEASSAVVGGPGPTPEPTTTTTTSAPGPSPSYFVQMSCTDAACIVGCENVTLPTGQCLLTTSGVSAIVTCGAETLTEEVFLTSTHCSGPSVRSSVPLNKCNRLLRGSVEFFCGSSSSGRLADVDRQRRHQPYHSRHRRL
#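 Compounds were screened in titration against cruzain (1.5 nM) with 0.01% Triton X-100 to counter colloidal aggregation. Activity was the AMC fluorescence increase over 60 s after adding 2 uM Z-FR-AMC at pH 5.5.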
# MARV entry inh – inhibitors of Marburg virus binding or cell entry; Marburg virus pseudotyped entry inhibition, cell reporter; control for the full effect not named in the record; about a third of the inactives were read at about 46 µM; AID 540276; Potency, µM (series often up to 37.8 µM), for the others: at the highest dose activity change, negative = inhibition, hits mostly inhibitors; 300,000 compounds, 1.8% hits; active = well fitted inhibition curve with a large enough effect; inconclusive = small, poorly fitted or top-dose-only effect, or effect the other way; inactive = flat fitted curve, though single readings scatter; tested in HEK293 cells; about a fifth of its hits are not listed in these tables; also: % is scaled to controls: 0 for no effect and ±100 for the full control effect; luciferase read-out
# SARS PLpro yeast – SARS-CoV PLP inhibition in yeast; S. cerevisiae expressing SARS-CoV PLpro, growth rescue; control for the full effect not named in the record; Potency, µM (doses to about 32.9 µM), for the others: at the highest dose activity, positive = growth rescue; 330,000 compounds, 0.19% hits; AID 485353; also: 0% is about no effect; nearly all actives have a fitted effect of over 55% in size; growth read by luminescence after 48 h
# NS1 inh – blocks influenza NS1 protein function; S. cerevisiae slowed by influenza A NS1, growth recovery by OD600; Potency, µM (top dose mostly 46.1 µM), without a hit: top-dose activity, positive = more growth; AID 2326; 270,000 compounds, 0.4% hits; also: actives are rising curves; nearly all actives have a fitted effect of over 50% in size
#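 S. cerevisiae expressing influenza A NS1, grown in glucose, washed, then diluted 1:100 into pH 6.0 -URA galactose medium with 23 nl compound. Growth recovery read as OD600; NS1-free strain serves as control.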
# Cruzain inh noDet – cruzain (T. cruzi) inhibition without detergent; purified cruzain, Z-FR-AMC fluorescence, no detergent; Potency, µM, for the others: max response, negative = inhibition, actives largely listed as inhibitors; P25779; AID 1476; 200,000 compounds, 2.3% hits; active = well fitted curve in the direction sought with a large enough effect; inconclusive = small, poorly fitted or top-dose-only effect, or another doubt; inactive = no such curve, though single readings can be large; an effect the other way counts as inactive or inconclusive;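 also: plate controls were enzyme without inhibitor for no effect and buffer without enzyme for full effect; nearly all actives have a fitted effect of over 40% in size; top concentration of the series not given in the record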
#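 Detergent-free condition (0.00005% Triton X-100) in acetate buffer pH 5.5 with DTT. 1.5 nM enzyme and compound were pre-mixed 15 min, then 2 uM Z-FR-AMC substrate added; reaction progress from fluorescence change between first and third reads (60 s).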
# Active calls of the source: *; ? = inconclusive; . = not tested or not shown; [ ] = remark or other dose. Unless noted, calls follow the shape of the dose curve; as a rule, active means well fitted rising curve with a large enough effect; inconclusive means small, poorly fitted or top-dose-only effect; inactive means no such curve, though single readings can be large or run the other way. Potency is read from the fitted curve at half-maximal effect.
mol	StopGo reporter	Lassa entry inh	RE007 growth inh	Cruzain inh Det	MARV entry inh	SARS PLpro yeast	NS1 inh	Cruzain inh noDet
Cc1c(C=C2C(=O)N(C)C(=S)N(C)C2=O)c2ccccc2n1CC(=O)NCC1CCCO1 (centres undefined)	?	11%[46.1 µM]	-25%	.	0%[46.1 µM]	4%	2%	.
O=C(c1cccc(F)c1)N1CCN(Cc2ccc3c(c2)OCO3)CC1	-29%	2%	3%	.	11%	9%	15%	.
O=C(Nc1ccc(-c2csc(Nc3cccc(C(F)(F)F)c3)n2)cc1)c1ccccc1	?	.	-7%	.	.	-3%	11%	.
COc1ccc(NC(=O)c2ccc3c(c2)NC(=O)CS3)cc1S(=O)(=O)Nc1ccc(Br)cc1	90%[activator]	.	0%	.	.	1%	11%	.
O=C(Cc1ccccc1F)Nc1ccccc1N1CCCC1	18%	.	-14%	.	.	-4%	-10%	.
COc1ccc(NC(=S)N(CCN2CCOCC2)C2CCN(C(C)=O)CC2)cc1Cl	9%	29%[46.1 µM]	26%	.	1%[46.1 µM]	-1%	.	.
COc1cccc(CNc2ncnc3onc(C)c23)c1	?	-8%[46.1 µM]	.	-3.5%	.	.	.	-21%
Cc1cccc(C(=O)NCCC(=O)Nc2ccc(F)c([N+](=O)[O-])c2)c1	?	-25%	-2%	.	-13%[46.1 µM]	0%	2%	.
COc1ccccc1OCC(=O)NCCSCc1ccccc1Cl	-11%	9%	-11%	-17%	-6%	-9%	-47%	10%
O=C(Cn1c(=O)oc2ccccc21)Nc1n[nH]c(=S)s1	-4%	.	2%	.	.	3%	-3%	.
COc1ccc(C2=Nn3c(nnc3C3CCCCC3)SC2)cc1OC	14%	-46%	11%	-1.8%	?	14%	-2%	8%
OCCn1c(-c2ccc3c(c2)OCO3)csc1=Nc1ccccc1	?	?	-2%	5.3%	?	-6%	-48%	0%
Brc1ccc2nc(CSc3ncn[nH]3)cn2c1	42%[activator]	9%	-18%	-1.6%	-10%	-4%	1%	0%
N=c1ncn(CC(O)CO)c2nc(N3CCOCC3)[nH]c12 (centres undefined)	-13%	1%	9%	0.0%	3%	9%	2%	-10%
O=C(c1n[nH]c(=O)c2ccccc12)N1CCN(c2ccc(F)cc2)CC1	?	-14%	-9%	3.4%	-4%	5%	-2%	4%
CC(C)Cn1c(N)c(C(=O)COC(=O)CCNS(=O)(=O)c2ccccc2)c(=O)n(C)c1=O	?	-1%	9%	.	-1%	-1%	.	.
CCOC(=O)C1CCN(C(=O)COC(=O)CCOc2ccc(C)cc2)CC1	7%	?	-9%	1.3%	0%[46.1 µM]	-5%	-4%	3%
CC(NC(=O)c1ccccc1NS(=O)(=O)c1ccc(CCC(=O)O)cc1)c1ccccc1 (centres undefined)	-15%	7%	-1%	.	17%	-4%	22%	.
O=C1CN(C(=O)COC(=O)CCC(=O)c2ccc(Cl)cc2)c2ccccc2N1	-6%	8%	0%	.	11%	20%	.	.
O=C(CSc1nnc(-c2ccccc2)n1-c1ccccc1)NCc1ccco1	-7%	?	2%	4.1%	-11%	-8%	18µM*	8%
Cc1c(NC(=O)/C(C#N)=C/c2ccc(-c3cccc(Cl)c3)o2)c(=O)n(-c2ccccc2)n1C	0%	?	5%	-16%	-18%	-17%	3%	?
CCOC(=O)C1=C(N)Oc2cc(O)ccc2C1c1ccc(Br)cc1 (centres undefined)	-4%	.	-15%	.	.	-5%	7%	.
COc1ccccc1C(=O)NC(=O)CSc1nnc2ccccn12	-4%	22%	-6%	.	-2%	-4%	.	.
CC(C)(C)OC(=O)C(Cl)(C(=O)OC(C)(C)C)c1ccc2nnnn2n1	?	4%	-15%	.	11%[46.1 µM]	-3%	.	.
O=C1NC2(CCCCC2)C(=O)N1Cc1ccc([N+](=O)[O-])cc1	-15%	6%	-10%	-0.3%	?	-3%	15%	?

# The results go on:
mol	StopGo reporter	Lassa entry inh	RE007 growth inh	Cruzain inh Det	MARV entry inh	SARS PLpro yeast	NS1 inh	Cruzain inh noDet
CC(C)(C)n1nnnc1C(c1ccccc1F)N1CCN(C(=O)c2ccco2)CC1 (centres undefined)	2%	-9%	1%	.	?	1%	-7%	.
O=[N+]([O-])c1ccc(N2CCOCC2)c2ccncc12	-19%	-8%	-4%	.	7%[46.1 µM]	1%	.	.
O=C(c1ccc(Cl)c(S(=O)(=O)N2CCCC2)c1)N1CCN(c2ccccc2)CC1	0%	?	-14%	.	?	1%	.	.
COc1ccc(NC(=O)Cc2ccc(-c3ccccc3)cc2)cn1	-24%	?	-13%	.	?	-1%	.	.
CCN(C(=O)CSc1ncc(S(=O)(=O)c2ccc(C)c(Cl)c2)c(=O)[nH]1)c1cccc(C)c1	12%	-8%[46.1 µM]	.	-17%	.	.	.	?
CS(=O)(=O)N(Cc1ccco1)CC(O)Cn1c2ccccc2c2ccccc21 (centres undefined)	-12%	?	-5%	-6.2%	?	-3%	-44%	?
CC(Oc1ccc2c(c1)oc(=O)c1ccccc12)C(=O)NCCCN1CCOCC1 (centres undefined)	-14%	?	-9%	.	-2%[46.1 µM]	-2%	-5%	.
CCOc1ccccc1N1CCN(S(=O)(=O)c2cccc3nsnc23)CC1	.	?	-2%	6.5%	-38%	-9%	-11%	-9%
Cc1ccc(S(=O)(=O)N(C)CCCC(=O)NCc2ccc3c(c2)OCO3)cc1	-3%	-2%	-3%	1.2%	2%	5%	-17%	5%
Cc1nc2ccc(-n3ccc(=O)cc3)cc2s1	.	-1%	10%	-3.2%	-2%	-1%	0%	-1%
O=C(CCCN1C(=O)/C(=C/c2cccs2)SC1=S)Nc1cccnc1	-9%	?	-15%	.	?	0%	-6%	.
Cc1ccc(OCC(=O)Nc2nnc(S(=O)(=O)N3CCCCCC3)s2)cc1C	-18%	.	0%	.	.	0%	11%	.
CC1(C)CC(=O)C2=C(C1)OC(N)=C(C#N)C21CCN(C(=O)OCc2ccccc2)CC1	.	3%	7%	-9.3%	1%	6%	13%	8%
CCn1c2ccccc2c2cc(C3C(C#N)=C(C)NC(C)=C3C#N)ccc21	.	-16%	4%	-24%	8%	0%	-40%	?
Cc1ccc(C23OC(=O)C(C)(C)C2OC(=O)C3(C)C)cc1 (centres undefined)	-16%	?	-1%	2.6%	7%	11%	3%	0%
NC(=O)C1CCN(C(=O)/C=C/c2cccc(Br)c2)CC1	7%	-8%	10%	.	14%[46.1 µM]	1%	6%	.
Cc1cc(S(=O)(=O)N2CCCC2)ccc1OCC(=O)NC1CCCC1	-13%	0%	3%	.	3%[46.1 µM]	0%	-3%	.
Cc1nc2ccccn2c1C(=O)NN=C1C2CC3CC(C2)CC1C3	-13%	13%	-6%	-1.7%	1%	12%	17%	5%
CCCCOc1ccc(C(=O)NCC(=O)NCc2ccncc2)cc1	-12%	18%	0%	.	0%	-3%	.	.
Cc1ccc(S(=O)(=O)N2CCCOC2CNC(=O)C(=O)NCc2cccnc2)cc1 (centres undefined)	-15%	2%	.	0.4%	?	8%	-5%	1%
CCOc1ccc(S(=O)(=O)NCCC(=O)OC(C)C(=O)N2CCc3ccccc32)cc1 (centres undefined)	?	-3%	5%	2.4%	?	-2%	-3%	?
O=C(CN1C(=O)NC2(CCOc3ccccc32)C1=O)N1CCCCC1 (centres undefined)	-8%	-2%	22%	.	3%	4%	.	.
COc1ccc(NC(=O)CSc2nccn2Cc2ccco2)cc1	13%	?	-9%	.	-26%	-3%	-9%	.
Cc1cccc(NC(=O)N2CC=C(c3c[nH]c4ccccc34)CC2)c1C	-4%	24%[46.1 µM]	.	-12%	.	.	.	4%
CCc1cccc(CC)c1N(COC)C(=O)Cn1nnc2ccccc21	10%	0%	39%	-2.4%	-8%	-4%	-3%	-14%

# Carrying on.
mol	StopGo reporter	Lassa entry inh	RE007 growth inh	Cruzain inh Det	MARV entry inh	SARS PLpro yeast	NS1 inh	Cruzain inh noDet
CC(=O)Nc1nonc1-c1nnc(SCc2ccc(F)cc2Cl)n1C	2%	0%[46.1 µM]	.	-0.4%	13%[46.1 µM]	.	.	-4%
Cc1ccc(NC(=O)CN(C)C(=O)c2ccc(COc3ccccc3)cc2)cc1	-2%	-18%	-5%	.	-2%[46.1 µM]	-2%	.	.
Cc1ncc([N+](=O)[O-])n1Cc1cccc2ccccc12	-21%	0%	33%	1.6%	?	15%	26%	-14%
Cc1ccc(C)n1-c1nnc(N2CCCC(C(=O)NCc3ccccc3)C2)s1 (centres undefined)	-21%	-3%[46.1 µM]	.	-6.3%	-2%[46.1 µM]	.	.	-10%
CCCCn1c(=O)[nH]c(=O)c2c1nc(-c1ccncc1)n2CCOC	0%	-2%	34%	3.4%	5%[46.1 µM]	3%	-4%	0%
Cc1ccsc1/C=N/Nc1nc(=O)[nH]nc1C	7%	18µM*	13µM*	.	?	-3%	.	.
O=C(Nc1ccccc1)N1CCCC1	-7%	?	5%	1.9%	10%	-7%	-9%	0%
CCn1c(NC(=O)Nc2ccccc2OC)nc2ccccc21	-20%	-10%	-16%	-9.7%	-14%	-2%	-6%	-14%
Cc1cnc(C(=O)OCC(=O)N2c3ccccc3CC2C)cn1 (centres undefined)	-2%	0%	17%	.	-17%[46.1 µM]	3%	0%	.
NC(=O)C1CCCN(C(=O)c2cccc(S(=O)(=O)N(Cc3ccccc3)c3ccccc3)c2)C1 (centres undefined)	6%	-14%	14%	.	1%	4%	.	.
O=C(COC(=O)c1ccc(O)cc1)Nc1ccc2c(c1)OCO2	55%[activator]	0%	5%	.	?	0%	.	.
COCCNc1nnc(SCC(=O)Nc2nnc(-c3ccccc3)o2)s1	-3%	4%	4%	.	4%	.	.	.
COCCCNC(NC(=O)c1ccc(OC)cc1)C(Cl)(Cl)Cl (centres undefined)	-18%	16%[46.1 µM]	-1%	.	-14%[46.1 µM]	0%	4%	.
COc1ccc(NC(=O)CCNC(=O)c2ccc([N+](=O)[O-])cc2)cc1S(=O)(=O)N1CCCCC1	-24%	3%	4%	.	-1%	4%	.	.
